Beta cell apopt: blocks beta cell apoptosis; INS-1E cytokine-induced death, ATP luminescence, 48 h; percent of positive-control rescue, neutral wells zero; protection from apoptosis, % (no concentration beside the values); actives 0.8% (n = 300,000); AID 435005;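 active = all replicates at 75% or more, or half of them and the mean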;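 also: 0% = cytokine-treated negative control wells and 100% = positive control rescue; higher means more ATP so stronger rescue from cytokine killing; wells of about 40 µL received 100 nL stock; the first replicate is given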
MLL AF4-AF9 inh: inhibitors of human MLL-AF4/AF9 interaction | P42568 | AlphaScreen, biotin-AF4 peptide binding to FLAG-AF9 | inhibition, % at 10 µM | actives 0.47% (n = 350,000) | AID 651704;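 active = every replicate reaching a set inhibition limit, whatever the replicate mean, cut at about 25% in these data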;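 also: 0% = plate neutral control median and 100% = total signal loss; the record names both 10 and 1 µM as test concentration; the first replicate is given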
Target sequence (P42568 whole entry, looked up): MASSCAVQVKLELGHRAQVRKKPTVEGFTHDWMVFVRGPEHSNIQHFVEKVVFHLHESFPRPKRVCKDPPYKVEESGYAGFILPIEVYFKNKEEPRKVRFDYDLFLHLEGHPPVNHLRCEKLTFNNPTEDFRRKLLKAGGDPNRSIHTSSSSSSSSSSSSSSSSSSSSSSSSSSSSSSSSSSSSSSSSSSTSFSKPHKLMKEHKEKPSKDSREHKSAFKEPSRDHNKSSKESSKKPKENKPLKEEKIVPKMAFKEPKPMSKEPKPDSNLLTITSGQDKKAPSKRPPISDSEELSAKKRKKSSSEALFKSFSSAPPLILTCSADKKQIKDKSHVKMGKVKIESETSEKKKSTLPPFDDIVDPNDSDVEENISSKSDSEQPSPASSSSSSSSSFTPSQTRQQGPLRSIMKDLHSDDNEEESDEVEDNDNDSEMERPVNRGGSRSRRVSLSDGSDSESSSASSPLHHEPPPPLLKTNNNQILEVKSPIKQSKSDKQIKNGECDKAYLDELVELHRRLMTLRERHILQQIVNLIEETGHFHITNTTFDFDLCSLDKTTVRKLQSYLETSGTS
UCH37 inh: blocks the human deubiquitinase UCH37. Q9Y5K5. purified proteasome/UCH37, Ub-AMC cleavage fluorescence. inhibition, % (concentration not given with the values). actives 0.33% (n = 330,000). AID 588478;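 active = mean of two replicates above 20%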;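 also: 0% = compound-free wells with enzyme and 100% = wells lacking proteasome; stock transfer was 100 nL into about 20 µL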
Target sequence (Q9Y5K5 whole entry, looked up): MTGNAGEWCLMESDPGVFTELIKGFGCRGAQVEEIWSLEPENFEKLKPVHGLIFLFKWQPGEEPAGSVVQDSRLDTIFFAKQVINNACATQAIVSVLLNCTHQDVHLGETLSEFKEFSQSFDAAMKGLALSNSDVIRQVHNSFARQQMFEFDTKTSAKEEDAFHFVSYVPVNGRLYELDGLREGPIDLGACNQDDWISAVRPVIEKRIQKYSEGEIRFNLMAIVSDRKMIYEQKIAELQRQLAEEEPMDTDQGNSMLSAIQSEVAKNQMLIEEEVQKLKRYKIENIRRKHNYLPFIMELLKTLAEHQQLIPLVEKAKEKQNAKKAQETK
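Material: human UCH37 enzyme supplied as purified proteasome complex / Amount: 0.15 nM proteasome as dispensed / Buffer or medium: pH 7.4 Tris-HCl (50 mM) with ovalbumin, ATP-MgCl2, DTT / Times: preincubation 30 min, reaction 25 min, room temperature / Technique: AMC fluorescence from Ub-AMC cleavage, excitation 355 nm, emission 460 nm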
T cruzi inh: blocks replication of Trypanosoma cruzi; T. cruzi beta-gal in NIH3T3, luminescence, 90 h; inhibition, % (no concentration beside the values); actives 1.4% (n = 300,000);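 active = mean inhibition across valid replicates above about 55%, limit read from the data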;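 also: signal also drops with host cell toxicity which is not excluded here; 0% = plate median of DMSO wells and 100% = zero luminescence signal; higher percent means less beta-gal luminescence so fewer parasites; stock transfer was 50 nL into about 50 µL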
Ecoli rRNA inh: inhibitors of bacterial rRNA selective over humanized ribosomes | AID 720706 | E. coli WT GFP vs humanized-ribosome RFP mutants, fluorescence, 24 h; active compounds read low; DMSO median 0, no signal -100 | actives 1.6% (n = 350,000) | GFP signal change (wild-type ribosome), % (no concentration beside the values);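 active = significant combined selectivity score with lowered wild-type GFP, culture density cut under 30%, mutant RFP and density less affected; inactive = any of these conditions unmet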; also: one replicate is shown; some compounds called inactive have numbers as strong as hits
Ecoli growth: inhibitors of Escherichia coli growth; OD600, 23 h; active compounds read low; OD600 absorbance (no concentration beside the values); actives 0.21% (n = 330,000); AID 1053175;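 active = OD600 absorbance below the run mean of sample wells minus 3.6 SD, in any replicate, cut at about 0.56 in these data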;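 also: stock transfer was 300 nL into about 60 µL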
FGF22 binding: FGF22 (human) thermal shift binding | Q9HCT0 | recombinant FGF22 thermal shift, SYPRO orange fluorescence; percent of sucrose octasulfate shift, DMSO zero | calls only at 9.99 µM | actives 1.5% (n = 340,000);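 active = melting point raised past a set limit in the mean and every replicate; three in four hits are not shown here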
Target sequence (Q9HCT0 whole entry, looked up): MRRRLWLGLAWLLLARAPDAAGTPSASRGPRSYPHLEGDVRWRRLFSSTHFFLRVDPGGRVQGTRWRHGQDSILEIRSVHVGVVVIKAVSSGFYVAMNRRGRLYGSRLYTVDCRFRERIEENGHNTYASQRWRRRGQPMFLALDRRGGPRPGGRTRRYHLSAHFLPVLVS
Bfl-1 A1 inh: inhibitors of the anti-apoptotic protein A1, read as caspase activation. actives 0.066% (n = 330,000). AID 2462. caspase activation, % (no concentration beside the values). MEF A1-2A-BIM cells, Caspase-Glo 3/7 luminescence, 3 h; percent of clofoctol response, vehicle zero;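 active = over half of replicate activation scores above 10%, or exactly half above 10 with the replicate mean above 10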;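 also: wells of about 30 µL received 50 nL stock; many hits fall short of the cut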
Ecoli rRNA inh OD600: further read-out of Ecoli rRNA inh, marked with its call; OD600 change, %; measured here: OD600 growth;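 optical density of the mix in the first replicate; 0 = DMSO median and -100 = no signal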
Ecoli rRNA inh RFP: further read-out of Ecoli rRNA inh, marked with its call; RFP signal change, %; measured here: RFP humanized mutant strains;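 first replicate; 0 = DMSO median and -100 = no signal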
* marks the source's active call; other numbers are inactive results; & = joins results of further samples. This is a subset. The share of hits here may be higher or lower than overall.

Results for CCN1CCN(C(=O)/C=C/c2c(F)cccc2Cl)CC1 ?
Beta cell apopt: -9.5; MLL AF4-AF9 inh: -4.1; UCH37 inh: -1.4; T cruzi inh: 6.1; Ecoli rRNA inh: 6.0; Ecoli growth: 0.682; FGF22 binding: inactive; Bfl-1 A1 inh: -0.2; Ecoli rRNA inh OD600: 3.8; Ecoli rRNA inh RFP: -4.6

What do the screens show for `C[C@@H](Oc1ccccc1)c1nnn(Cc2ccccc2)c1-c1c([C@@H](C)Oc2ccccc2)nnn1Cc1ccccc1`?
Beta cell apopt: 45.1; MLL AF4-AF9 inh: -0.5; UCH37 inh: 1.6; T cruzi inh: 37.0; Ecoli rRNA inh: 5.8; FGF22 binding: inactive; Bfl-1 A1 inh: 0.8; Ecoli rRNA inh OD600: 18.5; Ecoli rRNA inh RFP: -5.5

What do the screens show for `Cc1ccc(C(=O)NNC(=O)CCOc2cccc(C)c2)cc1`?
Beta cell apopt: 0.6; MLL AF4-AF9 inh: -2.6; UCH37 inh: 5.4; Ecoli rRNA inh: -2.1; Ecoli growth: 0.716; FGF22 binding: inactive; Bfl-1 A1 inh: -0.3; Ecoli rRNA inh OD600: 10.8; Ecoli rRNA inh RFP: 4.9

What do the screens show for `CN(C)CC#CCC(O)(c1ccccc1)C1CCCCC1` (stereo not given)?
MLL AF4-AF9 inh: 0.9; UCH37 inh: 1.9; T cruzi inh: 0.2; Ecoli rRNA inh: 1.5; Ecoli growth: 0.663; FGF22 binding: inactive; Bfl-1 A1 inh: -0.9; Ecoli rRNA inh OD600: -8.5; Ecoli rRNA inh RFP: 0.0

Results for Cc1nc(C)c(C(=O)Nc2cccc(C)c2C)o1 ?
MLL AF4-AF9 inh: -1.9; UCH37 inh: 1.5; T cruzi inh: 1.1; Ecoli rRNA inh: 4.5; Ecoli growth: 0.705; FGF22 binding: inactive; Ecoli rRNA inh OD600: 2.6; Ecoli rRNA inh RFP: 0.3

Results for COC(=O)[C@]1(Cc2ccccc2)N[C@H](CN(C)S(=O)(=O)c2ccc(-c3ccccc3)cc2)[C@@H]2C(=O)N(Cc3ccccc3)C(=O)[C@@H]21 ?
Beta cell apopt: 2.9; MLL AF4-AF9 inh: -2.9; UCH37 inh: 3.2; Ecoli rRNA inh: 2.7; Ecoli growth: 0.744; FGF22 binding: inactive; Bfl-1 A1 inh: -0.2; Ecoli rRNA inh OD600: 24.2; Ecoli rRNA inh RFP: 3.1

What do the screens show for `CCN(CC)CCOc1ncnc2c1oc1ccccc12`?
Beta cell apopt: -1.5; UCH37 inh: 4.2; T cruzi inh: 2.5; Ecoli growth: 0.663; Bfl-1 A1 inh: -0.5

What do the screens show for `Cc1ccccc1C(=O)Nc1c2c(nn1C(C)(C)C)CS(=O)(=O)C2`?
Beta cell apopt: -9.5; MLL AF4-AF9 inh: -1.1; UCH37 inh: 0.8; T cruzi inh: 7.2; Ecoli rRNA inh: 14.7; Ecoli growth: 0.683; FGF22 binding: inactive; Bfl-1 A1 inh: 0.7; Ecoli rRNA inh OD600: 13.1; Ecoli rRNA inh RFP: 4.7

How did COc1ccc(C=CC(=O)c2ccc([N+](=O)[O-])cc2)cc1 do in these assays?
MLL AF4-AF9 inh: -0.4; UCH37 inh: 5.7; Ecoli rRNA inh: 4.7; Ecoli growth: 0.715; FGF22 binding: inactive; Ecoli rRNA inh OD600: 9.7; Ecoli rRNA inh RFP: -1.2

How did CC(Cl)C(=O)c1ccc2c(c1)CCN2C(=O)C1CC1 (stereo not given) do in these assays?
Beta cell apopt: -45.6; MLL AF4-AF9 inh: 0.0; UCH37 inh: 9.6; T cruzi inh: -15.6; Ecoli rRNA inh: 7.5; Ecoli growth: 0.655; FGF22 binding: inactive; Bfl-1 A1 inh: 0.1; Ecoli rRNA inh OD600: 7.2; Ecoli rRNA inh RFP: -3.3

Results for Cc1c(NC(=O)c2ccco2)cccc1-c1nc2cccnc2s1 ?
Beta cell apopt: 9.1; MLL AF4-AF9 inh: -2.9; UCH37 inh: -4.1; T cruzi inh: -6.7; Ecoli rRNA inh: -8.7; Ecoli growth: 0.75; FGF22 binding: inactive; Bfl-1 A1 inh: 0.2; Ecoli rRNA inh OD600: -18.4; Ecoli rRNA inh RFP: -1.5

What do the screens show for `O=C(CN1C(=O)NC2(CCCCC2)C1=O)N1CCN(S(=O)(=O)c2cccc(F)c2)CC1`?
Beta cell apopt: -1.5; MLL AF4-AF9 inh: -9.7; UCH37 inh: 0.2; T cruzi inh: -10.0; Ecoli rRNA inh: -0.4; Ecoli growth: 0.638; FGF22 binding: inactive; Bfl-1 A1 inh: 0.8; Ecoli rRNA inh OD600: 5.4; Ecoli rRNA inh RFP: 1.3

What do the screens show for `Clc1ccc(OCc2nc(-c3ccccn3)no2)c(Br)c1`?
Beta cell apopt: 6.1; MLL AF4-AF9 inh: 6.7; UCH37 inh: 2.4; T cruzi inh: 0.0; Ecoli rRNA inh: -0.2; Ecoli growth: 0.698; FGF22 binding: inactive; Bfl-1 A1 inh: -6.2; Ecoli rRNA inh OD600: 8.1; Ecoli rRNA inh RFP: -0.9

How did CCC(COC(=O)Nc1cccc(C)c1C)NC(=O)OCC(C)C (stereo not given) do in these assays?
Beta cell apopt: 0.0; UCH37 inh: 1.4; T cruzi inh: -3.3; Ecoli growth: 0.708; Bfl-1 A1 inh: -1.0

How did O=C1CCCCCN1Cc1nnc(SCc2nc3ccccc3s2)n1-c1ccccn1 do in these assays?
Beta cell apopt: -3.0; UCH37 inh: -0.8; T cruzi inh: -1.2; Ecoli growth: 0.743; Bfl-1 A1 inh: -0.6

How did CN(c1ccc(F)cc1)S(=O)(=O)c1ccc(Cl)c(C(=O)Nc2ccncc2)c1 do in these assays?
Beta cell apopt: 39.2; MLL AF4-AF9 inh: 15.5; UCH37 inh: 1.9; T cruzi inh: 20.1; Ecoli rRNA inh: 11.0; Ecoli growth: 0.662; FGF22 binding: inactive; Bfl-1 A1 inh: 0.2; Ecoli rRNA inh OD600: 7.3; Ecoli rRNA inh RFP: 5.0

How did COC(=O)c1c(-c2ccc(N(C)C)cc2)sc2ccc(OC)cc12 do in these assays?
Beta cell apopt: 7.4; MLL AF4-AF9 inh: -9.4; UCH37 inh: -232.7; Ecoli rRNA inh: -11.5; Ecoli growth: 0.732; FGF22 binding: inactive; Bfl-1 A1 inh: -1.1; Ecoli rRNA inh OD600: -2.9; Ecoli rRNA inh RFP: 8.8

What do the screens show for `O=C(NCc1ccc(F)cc1)C(c1ccccc1)N(CC1CCCO1)C(=O)Cn1nnc2ccccc21` (stereo not given)?
Beta cell apopt: -8.5; UCH37 inh: 5.5; T cruzi inh: 15.2; Ecoli growth: 0.726; Bfl-1 A1 inh: 0.0

What do the screens show for `COc1ccc2c(c1)c(CC(=O)Nc1ccc(C)cc1)c(C)n2C(=O)c1ccc(Cl)cc1`?
Beta cell apopt: 40.6; UCH37 inh: 0.4; T cruzi inh: 56.4*; Ecoli growth: 0.785; Bfl-1 A1 inh: 0.0

How did Cc1c(Cl)c([N+](=O)[O-])nn1Cc1ccc(C(=O)Nc2ccc(Cl)cn2)o1 do in these assays?
Beta cell apopt: -7.0; UCH37 inh: 1.6; T cruzi inh: 36.5; Ecoli growth: 0.695; Bfl-1 A1 inh: 0.4

How did CCN(Cc1ccccc1)Cc1cccc([N+](=O)[O-])c1 do in these assays?
Beta cell apopt: 2.8; UCH37 inh: 1.7; T cruzi inh: -4.1; Ecoli growth: 0.651; Bfl-1 A1 inh: 0.0

Results for O=C(Nc1nccs1)NC1CCCCC1 ?
Beta cell apopt: -3.5; UCH37 inh: 2.3; T cruzi inh: -16.0; Ecoli growth: 0.725; Bfl-1 A1 inh: -0.5

What do the screens show for `Cc1nc(SCc2ccccc2)c2oc3ccccc3c2n1`?
Beta cell apopt: 4.8; MLL AF4-AF9 inh: 12.1; UCH37 inh: 3.5; T cruzi inh: 8.3; Ecoli rRNA inh: 0.5; Ecoli growth: 0.69; FGF22 binding: inactive; Bfl-1 A1 inh: 0.4; Ecoli rRNA inh OD600: 7.6; Ecoli rRNA inh RFP: 1.6

How did CCO[C@@H]1OC(C(=O)N2CCN(Cc3ccccc3)CC2)=C[C@H](c2csc3ccccc23)[C@H]1CCCO do in these assays?
Beta cell apopt: 0.9; MLL AF4-AF9 inh: 3.8&6.3; UCH37 inh: 4.8; T cruzi inh: 48.2; Ecoli rRNA inh: -48.0; FGF22 binding: inactive; Bfl-1 A1 inh: -0.1; Ecoli rRNA inh OD600: -63.6; Ecoli rRNA inh RFP: -7.7

Results for COc1cccc(NC(=O)COC(=O)c2nc(Cl)ccc2Cl)c1 ?
Beta cell apopt: -6.1; MLL AF4-AF9 inh: 0.6; UCH37 inh: 1.8; T cruzi inh: -13.6; Ecoli rRNA inh: -15.8; Ecoli growth: 0.761; FGF22 binding: inactive; Bfl-1 A1 inh: 0.7; Ecoli rRNA inh OD600: -13.2; Ecoli rRNA inh RFP: -0.8

What do the screens show for `O=C(c1ccc(Cn2c(=O)[nH]c3ccccc3c2=O)cc1)N1CCN(c2ccc(F)cc2)CC1`?
Beta cell apopt: -0.5; UCH37 inh: 5.5; T cruzi inh: 25.0; Ecoli growth: 0.671; Bfl-1 A1 inh: 0.4

Results for CCOC(=O)c1sc(NC(=O)CCN2CCCCCC2)c(C(=O)OCC)c1C ?
Beta cell apopt: 3.5; MLL AF4-AF9 inh: -12.1; UCH37 inh: 3.2; T cruzi inh: -23.5; Ecoli rRNA inh: 1.9; Ecoli growth: 0.704; FGF22 binding: inactive; Bfl-1 A1 inh: -1.8; Ecoli rRNA inh OD600: -0.3; Ecoli rRNA inh RFP: 0.3

How did O=C(NCc1ccc(F)cc1)C(c1ccco1)N(C(=O)c1csnn1)c1ccccc1 (stereo not given) do in these assays?
Beta cell apopt: -5.3; MLL AF4-AF9 inh: -0.4; UCH37 inh: 3.9; T cruzi inh: 13.4; Ecoli rRNA inh: -0.1; Ecoli growth: 0.708; FGF22 binding: inactive; Bfl-1 A1 inh: 0.5; Ecoli rRNA inh OD600: -5.0; Ecoli rRNA inh RFP: 1.0

How did c1ccc2c(c1)cnc1ccccc12 do in these assays?
Beta cell apopt: -7.5&-3.3; MLL AF4-AF9 inh: 0.5&-2.5; UCH37 inh: 3.3&0.7; T cruzi inh: 4.8&-5.1; Ecoli rRNA inh: 4.8&-3.4; Ecoli growth: 0.64&0.597; FGF22 binding: inactive; Bfl-1 A1 inh: 0.0&-0.1; Ecoli rRNA inh OD600: 3.9&4.1; Ecoli rRNA inh RFP: 0.2&-1.4

Results for Cc1ccc(Cl)cc1NC(=S)NN ?
Beta cell apopt: -12.9; MLL AF4-AF9 inh: -0.2; UCH37 inh: 2.0; T cruzi inh: -7.3; Ecoli rRNA inh: -3.5; Ecoli growth: 0.646; FGF22 binding: inactive; Bfl-1 A1 inh: -3.3; Ecoli rRNA inh OD600: -3.5; Ecoli rRNA inh RFP: -1.4

Screening results (PubChem)
